# A1 apoptosis 2 = compounds inhibiting A1, read as caspase activation; MEF A1-2A-BIM cells, caspase-Glo luminescence, 3 h; percent of clofoctol response, DMSO zero; caspase activation, % (no concentration beside the values); 24,000 tested, under 10 active; in the data active = caspase activation above about 5.9%;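 also: wells of about 30 µL received 50 nL stock; the first replicate is given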
#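 Test system – A1-2A-BIM-expressing MEF cells · Input – 2500 cells/well · Medium – RPMI-1640 growth medium with 10% FBS · Compound dosing – 50 nL pinned compound · Timing – 3 h compound exposure at 37 °C · Technique – Caspase-Glo luminescence (DEVD substrate) · Evaluation – Caspase-3/7 activity from luminescence increase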
# * = called active by the depositor.
SMILES,A1 apoptosis 2
C[C@@H]1CN([C@@H](C)CO)C(=O)c2cccc(NC(=O)C3CCCCC3)c2O[C@@H]1CN(C)Cc1ccc(C(F)(F)F)cc1,0.2
C[C@@H]1CCCCO[C@H](CN(C)Cc2ccc3c(c2)OCO3)[C@H](C)CN([C@H](C)CO)C(=O)c2cc(NC(=O)C3CCCCC3)ccc2O1,-0.5
Cc1ccc(S(=O)(=O)N(C)C[C@@H]2OCCCC[C@@H](C)Oc3ccc(NC(=O)CCCN(C)C)cc3C(=O)N([C@@H](C)CO)C[C@@H]2C)cc1,0.9
Cc1ccc(S(=O)(=O)N(C)C[C@H]2OCCCC[C@H](C)Oc3ccc(NC(=O)c4ccncc4)cc3C(=O)N([C@@H](C)CO)C[C@H]2C)cc1,0.4
C[C@H](CO)N1C[C@H](C)[C@@H](CN(C)S(=O)(=O)c2cccs2)Oc2ccc(NS(=O)(=O)c3cn(C)cn3)cc2CC1=O,0.8
COc1ccc(NC(=O)N(C)C[C@@H]2Oc3ccc(NC(=O)Nc4ccc5c(c4)OCO5)cc3C(=O)N([C@H](C)CO)C[C@H]2C)cc1,0.1
C[C@H]1CN([C@@H](C)CO)C(=O)c2cc(NC(=O)Cc3ccccc3)ccc2O[C@@H]1CN(C)Cc1ccc(C(=O)O)cc1,0.6
C[C@@H]1CN([C@@H](C)CO)C(=O)c2cccc(NC(=O)c3ccc(-c4nccs4)cc3)c2O[C@@H]1CN(C)Cc1ccc(Cl)c(Cl)c1,0.3
C[C@@H]1CN([C@@H](C)CO)C(=O)Cc2cc(NC(=O)NC3CCCCC3)ccc2O[C@H]1CN(C)C,0.8
CCCN(C)C[C@@H]1OCCCC[C@@H](C)Oc2ccc(NC(=O)CCCCCC(=O)Nc3ccccc3N)cc2C(=O)N([C@H](C)CO)C[C@@H]1C,0.1
C[C@@H]1CN([C@@H](C)CO)C(=O)c2cc(NC(=O)NC3CCCCC3)ccc2O[C@H]1CN(C)C(=O)Nc1ccc(F)cc1,-0.2
C[C@H](CO)N1C[C@H](C)[C@@H](CN(C)Cc2ccccc2)Oc2ccc(NC(=O)Nc3ccccc3)cc2C1=O,1.7
Cc1noc(C)c1NC(=O)N(C)C[C@@H]1Oc2ccc(NS(=O)(=O)c3ccc(F)cc3)cc2C(=O)N([C@H](C)CO)C[C@H]1C,-0.9
C[C@@H]1CCCCO[C@@H](CN(C)C(=O)Nc2ccccc2)[C@@H](C)CN([C@H](C)CO)C(=O)c2cc(NS(=O)(=O)c3ccc(Cl)cc3)ccc2O1,0.9
CN1CCN(C(=O)C2=C[C@H](c3csc4ccccc34)C[C@H](OCc3ccc(CO)cc3)O2)CC1,-0.5
Cc1noc(C)c1S(=O)(=O)Nc1ccc2c(c1)C(=O)N([C@H](C)CO)C[C@H](C)[C@@H](CN(C)C(=O)Nc1ccc3c(c1)OCO3)OCCCC[C@H](C)O2,-1.1
CC(C)NC(=O)N(C)C[C@@H]1Oc2c(NS(C)(=O)=O)cccc2C(=O)N([C@H](C)CO)C[C@H]1C,-0.3
CC(C)NC(=O)Nc1ccc2c(c1)C(=O)N([C@@H](C)CO)C[C@@H](C)[C@H](CN(C)C(=O)NC(C)C)O2,-0.3
Cc1noc(C)c1S(=O)(=O)Nc1ccc2c(c1)C(=O)N([C@H](C)CO)C[C@@H](C)[C@@H](CN(C)C(=O)Nc1cccc3ccccc13)O2,-0.3
C[C@@H]1CN([C@@H](C)CO)C(=O)Cc2cc(N(C)C)ccc2O[C@@H]1CN(C)CC1CC1,-0.5
C[C@@H]1CCCCO[C@@H](CN(C)Cc2ccc(C(F)(F)F)cc2)[C@@H](C)CN([C@@H](C)CO)C(=O)c2cc(NC(=O)Nc3ccc(F)cc3)ccc2O1,0.3
Cc1noc(C)c1NC(=O)Nc1ccc2c(c1)C(=O)N([C@@H](C)CO)C[C@@H](C)[C@H](CN(C)Cc1ccccc1)OCCCC[C@@H](C)O2,0.2
Cc1noc(C)c1NC(=O)N(C)C[C@H]1Oc2c(NS(=O)(=O)c3cn(C)cn3)cccc2C(=O)N([C@H](C)CO)C[C@H]1C,0.1
O=C1CS(=O)(=O)C(c2ccccc2)N1c1ccc(-c2ccccc2)cc1 (stereo not drawn),-1.5
C[C@@H]1CN([C@@H](C)CO)C(=O)Cc2cc(NC(=O)C3CCCCC3)ccc2O[C@@H]1CN(C)Cc1ccc(C(F)(F)F)cc1,-0.5
C[C@@H]1CN([C@@H](C)CO)C(=O)Cc2cc(NC(=O)Nc3ccc4c(c3)OCO4)ccc2O[C@H]1CN(C)C(=O)Nc1ccc2c(c1)OCO2,0.1
O=C(C1=C[C@@H](c2ccc(C(F)(F)F)cc2)C[C@@H](OCCCCO)O1)N1CCN(Cc2ccccc2)CC1,0.3
COc1ccc(S(=O)(=O)Nc2ccc3c(c2)C(=O)N([C@H](C)CO)C[C@@H](C)[C@@H](CN(C)C(=O)c2ccncc2)OCCCC[C@H](C)O3)cc1,0.0
CNC[C@H]1Oc2ccc(NC(=O)Cc3cn(C)c4ccccc34)cc2C(=O)N([C@@H](C)CO)C[C@H]1C,0.2
COc1ccc(CN(C)C[C@H]2OCCCC[C@H](C)Oc3ccc(NC(=O)NC4CCCCC4)cc3C(=O)N([C@@H](C)CO)C[C@H]2C)cc1,0.4
COc1ccc(CN(C)C[C@@H]2OCCCC[C@@H](C)Oc3ccc(NC(=O)Nc4cccc5ccccc45)cc3C(=O)N([C@H](C)CO)C[C@H]2C)cc1,2.9
COc1ccc(NC(=O)Nc2cccc3c2O[C@@H](CN(C)Cc2ccc4c(c2)OCO4)[C@@H](C)CN([C@@H](C)CO)C3=O)cc1,-0.1
CC1(C)COC(CCC/C=N/NC(=O)c2ccccc2O)OC1,1.0
Cc1noc(C)c1NC(=O)N(C)C[C@@H]1OCCCC[C@H](C)Oc2ccc(NS(C)(=O)=O)cc2C(=O)N([C@@H](C)CO)C[C@@H]1C,-0.6
C[C@@H]1CN([C@@H](C)CO)C(=O)c2cc(N(C)C)ccc2O[C@@H]1CN(C)Cc1ccccc1,0.0
C[C@H](CO)N1C[C@H](C)[C@H](CN(C)Cc2ccc(C(F)(F)F)cc2)OCCCC[C@H](C)Oc2ccc(NS(=O)(=O)c3cn(C)cn3)cc2C1=O,0.4
COc1ccc(NC(=O)N(C)C[C@H]2OCCCC[C@H](C)Oc3ccc(NC(=O)Nc4ccc(C(F)(F)F)cc4)cc3C(=O)N([C@@H](C)CO)C[C@H]2C)cc1,2.8
C[C@@H]1CN([C@H](C)CO)C(=O)c2cc(NC(=O)C3CC3)ccc2O[C@@H]1CN(C)C(=O)Nc1ccc(F)cc1,0.7
CC(C)NC(=O)N(C)C[C@@H]1Oc2ccc(NC(=O)CCN3CCOCC3)cc2CC(=O)N([C@@H](C)CO)C[C@@H]1C,1.5
CNC[C@@H]1Oc2c(NC(=O)c3cnccn3)cccc2C(=O)N([C@@H](C)CO)C[C@@H]1C,-0.9
Cc1noc(C)c1S(=O)(=O)Nc1ccc2c(c1)C(=O)N([C@H](C)CO)C[C@H](C)[C@H](CN(C)C(=O)NC1CCCCC1)OCCCC[C@@H](C)O2,0.0
Cc1noc(C)c1NC(=O)Nc1cccc2c1O[C@H](CN(C)Cc1ccc(Cl)c(Cl)c1)[C@H](C)CN([C@@H](C)CO)C2=O,-0.5
C[C@@H]1CN([C@H](C)CO)C(=O)c2cc(NC(=O)CCCN(C)C)ccc2O[C@@H](C)CCCCO[C@@H]1CN(C)S(C)(=O)=O,-0.4
C[C@H](CO)N1C[C@H](C)[C@@H](CN(C)Cc2ccc(C(=O)Nc3ccccc3N)cc2)Oc2ccc(NC(=O)c3ccncc3)cc2C1=O,1.4
C[C@H](CO)N1C[C@H](C)[C@H](CN(C)Cc2ccc(Cl)c(Cl)c2)Oc2c(NC(=O)C3CCOCC3)cccc2C1=O,0.8
C[C@H](CO)N1C[C@H](C)[C@@H](CN(C)C(=O)Nc2ccc(C(C)(C)C)cc2)OCc2cnnn2CCCC1=O,-0.3
C[C@@H]1CCCCO[C@@H](CN(C)Cc2ccc(C(=O)O)cc2)[C@H](C)CN([C@@H](C)CO)C(=O)c2cc(NC(=O)Nc3ccc(F)cc3)ccc2O1,-0.5
C[C@H]1CN([C@@H](C)CO)C(=O)c2cc(NC(=O)Cc3cn(C)c4ccccc34)ccc2O[C@H]1CN(C)C(=O)Nc1ccc(F)cc1,-1.2
Cc1noc(C)c1NC(=O)N(C)C[C@@H]1Oc2ccc(NC(=O)Nc3ccccc3)cc2CC(=O)N([C@@H](C)CO)C[C@H]1C,0.8
C[C@H](CO)N1C[C@H](C)[C@H](CN(C)C(=O)Nc2ccc(F)cc2)OCCCC[C@H](C)Oc2ccc(NC(=O)Nc3ccc(C(F)(F)F)cc3)cc2C1=O,1.0
C[C@H]1CN([C@@H](C)CO)C(=O)c2cc(NC(=O)Nc3ccc4c(c3)OCO4)ccc2O[C@H]1CN(C)S(=O)(=O)c1ccc(Cl)cc1,-0.7
COc1ccc(NC(=O)Nc2ccc3c(c2)CC(=O)N([C@@H](C)CO)C[C@@H](C)[C@H](CN(C)C(=O)NC2CCCCC2)O3)cc1,-1.4
COc1ccc(S(=O)(=O)Nc2ccc3c(c2)C(=O)N([C@H](C)CO)C[C@@H](C)[C@H](CN(C)S(=O)(=O)c2ccc(OC)cc2)OCCCC[C@@H](C)O3)cc1,-0.5
C[C@@H]1CCCCO[C@@H](CN(C)S(C)(=O)=O)[C@H](C)CN([C@H](C)CO)C(=O)c2cc(NC(=O)Nc3ccc(C(F)(F)F)cc3)ccc2O1,0.7
C[C@@H]1CN([C@H](C)CO)C(=O)c2cc(NS(=O)(=O)c3ccc(Cl)cc3)ccc2O[C@@H]1CN(C)Cc1ccc(-c2ccccc2)cc1,1.0
C[C@@H]1CN([C@@H](C)CO)C(=O)CCCn2nncc2CO[C@H]1CN(C)C(=O)c1cc(-c2ccccc2)on1,-1.3
C[C@@H]1CN([C@@H](C)CO)C(=O)c2cc(NC(=O)NC3CCCCC3)ccc2O[C@@H]1CN(C)S(=O)(=O)c1cccs1,-1.0
C[C@H](CO)N1C[C@H](C)[C@H](CN(C)S(=O)(=O)c2ccccc2)OCCCC[C@H](C)Oc2ccc(NC(=O)c3ccncc3)cc2C1=O,0.7
C[C@H](CO)N1C[C@H](C)[C@H](CN(C)CC2CC2)Oc2ccc(NC(=O)Nc3ccc(F)cc3)cc2CC1=O,-0.2
O=C1O[C@H](c2ccccc2)[C@H](c2ccccc2)N2[C@H]1[C@@H](C(=O)N1CCCCCCC1)[C@]1(C(=O)Nc3ccc(C#CC4=CCCCC4)cc31)[C@H]2c1ccc(OCCO)cc1,1.4

# Filtered by structure, the entries above containing an aryl methoxy group
SMILES,A1 apoptosis 2
COc1ccc(NC(=O)N(C)C[C@@H]2Oc3ccc(NC(=O)Nc4ccc5c(c4)OCO5)cc3C(=O)N([C@H](C)CO)C[C@H]2C)cc1,0.1
COc1ccc(S(=O)(=O)Nc2ccc3c(c2)C(=O)N([C@H](C)CO)C[C@@H](C)[C@@H](CN(C)C(=O)c2ccncc2)OCCCC[C@H](C)O3)cc1,0.0
COc1ccc(CN(C)C[C@H]2OCCCC[C@H](C)Oc3ccc(NC(=O)NC4CCCCC4)cc3C(=O)N([C@@H](C)CO)C[C@H]2C)cc1,0.4
COc1ccc(CN(C)C[C@@H]2OCCCC[C@@H](C)Oc3ccc(NC(=O)Nc4cccc5ccccc45)cc3C(=O)N([C@H](C)CO)C[C@H]2C)cc1,2.9
COc1ccc(NC(=O)Nc2cccc3c2O[C@@H](CN(C)Cc2ccc4c(c2)OCO4)[C@@H](C)CN([C@@H](C)CO)C3=O)cc1,-0.1
COc1ccc(NC(=O)N(C)C[C@H]2OCCCC[C@H](C)Oc3ccc(NC(=O)Nc4ccc(C(F)(F)F)cc4)cc3C(=O)N([C@@H](C)CO)C[C@H]2C)cc1,2.8
COc1ccc(NC(=O)Nc2ccc3c(c2)CC(=O)N([C@@H](C)CO)C[C@@H](C)[C@H](CN(C)C(=O)NC2CCCCC2)O3)cc1,-1.4
COc1ccc(S(=O)(=O)Nc2ccc3c(c2)C(=O)N([C@H](C)CO)C[C@@H](C)[C@H](CN(C)S(=O)(=O)c2ccc(OC)cc2)OCCCC[C@@H](C)O3)cc1,-0.5

# High-throughput results from PubChem.

# An excerpt; rates above refer to the full screens.
